Candida biofilm = kills Candida albicans biofilms; AID 834; inhibition, % at 6 µM; C. albicans biofilm + clotrimazole, Alamar Blue; 85,000 compounds, 0.14% hits;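 active = inhibition above 20%; inactive = inhibition below 20%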;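 note: preformed 24 hr biofilms exposed to compound for 48 hr; 0% = biofilm without compound and 100% = blank killed by clotrimazole plus chlorhexidine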
TNFa cytotox = toxic to HUVEC cells under TNF alpha stimulation | cell count reduction, % at 2 µM | 93,000 compounds, 0.17% hits | HUVEC TNFalpha-stimulated, Hoechst cell count, imaging;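 active = cell count reduction exceeding the screen mean by over 5 SD, scaled to untreated wells per plate, cut at about 78% in these data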;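 note: cells counted after 24 h of TNF alpha exposure following the 1 h pretreatment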
Smad3 inh = inhibitors of human Smad3 transcription factor binding. P84022. TR-FRET Smad3/Dy647-FoxH1 peptide binding, europium anti-His. inhibition, % at 25 µM. 88,000 compounds, 0.29% hits;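 active = compounds that reduce the energy-transfer binding signal between the protein and its labelled peptide by more than half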;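 note: 0% = Smad3 plus labelled peptide maximal FRET and 100% = peptide-only background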
Target sequence (P84022 whole entry, looked up): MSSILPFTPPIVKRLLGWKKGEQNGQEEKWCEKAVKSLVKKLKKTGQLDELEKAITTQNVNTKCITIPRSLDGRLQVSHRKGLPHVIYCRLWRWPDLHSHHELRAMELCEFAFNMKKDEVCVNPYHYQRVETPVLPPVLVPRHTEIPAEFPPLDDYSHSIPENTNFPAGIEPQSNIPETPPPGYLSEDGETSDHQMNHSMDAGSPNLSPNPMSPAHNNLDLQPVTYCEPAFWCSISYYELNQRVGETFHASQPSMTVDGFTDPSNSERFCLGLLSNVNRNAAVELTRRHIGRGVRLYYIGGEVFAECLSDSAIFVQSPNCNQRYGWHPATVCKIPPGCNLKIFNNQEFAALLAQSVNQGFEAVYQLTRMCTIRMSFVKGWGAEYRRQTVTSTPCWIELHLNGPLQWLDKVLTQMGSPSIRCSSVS
sEH inh = blocks human soluble epoxide hydrolase activity; P34913; 91,000 compounds, 0.34% hits; recombinant human sEH enzymatic activity assay; inhibition, % at 2 µM; in the data active = inhibition above about 80%; note: values of inactives mirror those of a sister screen read the other way; many of its hits are not listed in these tables
F-actin modifier = modifiers of cytoskeleton assembly; inhibition, % at 2 µM; HUVEC TNFa F-actin phalloidin imaging, high content; 91,000 compounds, 0.18% hits; AID 836;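 active = inhibition above the batch mean plus 3 SD and confirmed as a hit by visual image inspection, cut at about 30% in these data, passing the limit was not always enough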; note: strong numbers were not always called active
sEH activator = activators of human soluble epoxide hydrolase; purified human sEH enzymatic activity, activator screen; activation, % at 2 µM; 91,000 compounds, 0.04% hits; AID 717; in the data active = activation above about 37%; note: values of inactives mirror those of a sister screen read the other way
The depositor's hits bear a star; · = not tested or not shown; & = joins results of further samples; [ ] = remark or other dose. This is a subset; count on the stated rates, not on these rows.

SMILES | Candida biofilm | TNFa cytotox | Smad3 inh | sEH inh | F-actin modifier | sEH activator
O=C(COC(=O)C1CC2C=CC1C2)NCc1ccco1 (stereo not given) | 8 | -4 | 12 | 1 | 0 | 0
O=c1c(O)c(-c2ccc(O)cc2O)oc2cc(O)cc(O)c12 | 11 | · | 16 | · | · | ·
Cc1cn([C@H]2C=C[C@@H](CO)O2)c(=O)[nH]c1=O | -3 | · | 0 | · | · | ·
OCCN1CCN(CCCN2c3ccccc3Sc3ccc(C(F)(F)F)cc32)CC1 | 2 | · | 2 | · | · | ·
CC(C)NCC(O)COc1ccc(CC(N)=O)cc1 (stereo not given) | 12 | · | -7 | · | · | ·
O=C1NC(=O)C(c2ccccc2)(c2ccccc2)N1 | 4&8 | 2 | 5&20 | 1 | 11 | -2
O=C(O)c1ccccc1O | 9 | · | 3 | · | · | ·
Nc1cccc(S(=O)(=O)c2cccc(N)c2)c1 | 6 | -45 | -7 | -8 | -4 | 7
C[C@H]1O[C@H]1P(=O)(O)O | 10 | · | -1 | · | · | ·
C[N+]12CCC(CC1)C(OC(=O)C(O)(c1ccccc1)c1ccccc1)C2 (stereo not given) | -2 | · | 1 | · | · | ·

Reprinted at random: 2 records from the list, in no set order.
SMILES | Candida biofilm | TNFa cytotox | Smad3 inh | sEH inh | F-actin modifier | sEH activator
Cc1cn([C@H]2C=C[C@@H](CO)O2)c(=O)[nH]c1=O | -3 | · | 0 | · | · | ·
O=C1NC(=O)C(c2ccccc2)(c2ccccc2)N1 | 4&8 | 2 | 5&20 | 1 | 11 | -2

Next structures
SMILES | Candida biofilm | TNFa cytotox | Smad3 inh | sEH inh | F-actin modifier | sEH activator
CCCSc1ccc2nc(NC(=O)OC)[nH]c2c1 | 7 | · | -2[fluorescence artefact?] | · | · | ·
O=C(NCC1CCCCN1)c1cc(OCC(F)(F)F)ccc1OCC(F)(F)F (stereo not given) | 1 | · | 0 | · | · | ·
CNCCC(Oc1ccc(C(F)(F)F)cc1)c1ccccc1 (stereo not given) | 8 | · | -6 | · | · | ·
CN1CCN(CCCN2c3ccccc3Sc3ccc(Cl)cc32)CC1 | 7 | · | -2 | · | · | ·
NC(=O)OCC(COC(N)=O)c1ccccc1 | 9 | · | 6 | · | · | ·
CC(C)[N+](C)(CCOC(=O)C1c2ccccc2Oc2ccccc21)C(C)C | 11 | · | 8 | · | · | ·
COc1ccc(Nc2ccccc2)c(C)c1 | 3 | -7 | -5 | -4 | -12 | 3
CCCCC(=O)O[C@]1(C(=O)CO)CC[C@H]2[C@@H]3CCC4=CC(=O)CC[C@]4(C)[C@H]3[C@@H](O)C[C@@]21C | 8 | · | 3 | · | · | ·
CCC(=O)c1ccc(O)cc1 | -1 | · | -8 | · | · | ·
O=C1OC(c2ccc(O)cc2)(c2ccc(O)cc2)c2ccccc21 | 11 | · | 3 | · | · | ·
COCCOC(=O)C1=C(C)NC(C)=C(C(=O)OC(C)C)C1c1cccc([N+](=O)[O-])c1 (stereo not given) | 2 | · | 0 | · | · | ·
COc1ccc2c(c1)c1c3n2CCN(C)C3=NCC1 | 9 | · | 16[fluorescence artefact?] | · | · | ·
NC(N)=Nc1nc(CSCC/C(N)=N/S(N)(=O)=O)cs1 | 8 | · | -2 | · | · | ·
COc1ccc(C(=O)c2ccc(OC)cc2O)c(O)c1 | 5 | 6 | 7 | -5 | 10 | 6
Cc1ccc(SCc2cn3c(C)csc3n2)cc1 | 3 | -8 | 12 | -15 | -25 | 14
O=S(=O)(Nc1nnc(-c2ccccc2)s1)c1ccc(Cl)cc1 | 8 | 5 | 7 | 0 | -23 | 0
COc1cccc(Nc2nc(NCC3CCCO3)c3ccccc3n2)c1 (stereo not given) | -3 | -15 | 4 | 23 | 6 | -20
CCCCN(CCCC)c1ccc(C(=O)c2ccccc2C(=O)O)c(O)c1 | -3 | 12 | -13 | -12 | 9 | 12
COC(=O)Cc1c[nH]c2cccc(OCC(O)CN(Cc3ccccc3)C(C)C)c12 (stereo not given) | 3 | -12 | 1 | 5 | -23 | -4
CC(=O)[C@H]1CC[C@H]2[C@@H]3CCC4=CC(=O)CC[C@]4(C)[C@H]3CC[C@]12C | 10 | · | 6 | · | · | ·
NCCCN1CCOCC1 | -6 | -11 | -1 | 8 | 10 | -6
CC(=O)O[C@]1(C(C)=O)CC[C@H]2[C@@H]3C=C(C)C4=CC(=O)CC[C@]4(C)[C@H]3CC[C@@]21C | 4 | · | -4 | · | · | ·

Given with values under each structure: part of the list above
Results follow in this order: Candida biofilm | TNFa cytotox | Smad3 inh | sEH inh | F-actin modifier | sEH activator
CNCCC(Oc1ccc(C(F)(F)F)cc1)c1ccccc1 (stereo not given)
→ 8 | · | -6 | · | · | ·
CN1CCN(CCCN2c3ccccc3Sc3ccc(Cl)cc32)CC1
→ 7 | · | -2 | · | · | ·
NC(=O)OCC(COC(N)=O)c1ccccc1
→ 9 | · | 6 | · | · | ·
CC(C)[N+](C)(CCOC(=O)C1c2ccccc2Oc2ccccc21)C(C)C
→ 11 | · | 8 | · | · | ·
COc1ccc(Nc2ccccc2)c(C)c1
→ 3 | -7 | -5 | -4 | -12 | 3
CCCCC(=O)O[C@]1(C(=O)CO)CC[C@H]2[C@@H]3CCC4=CC(=O)CC[C@]4(C)[C@H]3[C@@H](O)C[C@@]21C
→ 8 | · | 3 | · | · | ·
CCC(=O)c1ccc(O)cc1
→ -1 | · | -8 | · | · | ·
O=C1OC(c2ccc(O)cc2)(c2ccc(O)cc2)c2ccccc21
→ 11 | · | 3 | · | · | ·
COCCOC(=O)C1=C(C)NC(C)=C(C(=O)OC(C)C)C1c1cccc([N+](=O)[O-])c1 (stereo not given)
→ 2 | · | 0 | · | · | ·
COc1ccc2c(c1)c1c3n2CCN(C)C3=NCC1
→ 9 | · | 16[fluorescence artefact?] | · | · | ·
NC(N)=Nc1nc(CSCC/C(N)=N/S(N)(=O)=O)cs1
→ 8 | · | -2 | · | · | ·
COc1ccc(C(=O)c2ccc(OC)cc2O)c(O)c1
→ 5 | 6 | 7 | -5 | 10 | 6
Cc1ccc(SCc2cn3c(C)csc3n2)cc1
→ 3 | -8 | 12 | -15 | -25 | 14
O=S(=O)(Nc1nnc(-c2ccccc2)s1)c1ccc(Cl)cc1
→ 8 | 5 | 7 | 0 | -23 | 0
COc1cccc(Nc2nc(NCC3CCCO3)c3ccccc3n2)c1 (stereo not given)
→ -3 | -15 | 4 | 23 | 6 | -20
CCCCN(CCCC)c1ccc(C(=O)c2ccccc2C(=O)O)c(O)c1
→ -3 | 12 | -13 | -12 | 9 | 12
COC(=O)Cc1c[nH]c2cccc(OCC(O)CN(Cc3ccccc3)C(C)C)c12 (stereo not given)
→ 3 | -12 | 1 | 5 | -23 | -4

High-throughput results deposited in PubChem by several laboratories.
